Mtb MbtI inh: MbtI salicylate synthase inhibitors, primary screen, biochemical, fluorescence intensity. P9WFX0. purified MbtI enzyme, fluorescence intensity read-out. inhibition, %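 (about 17 µg/mL by stock and volumes)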. 0.89% of 100,000 active. AID 493033, 2011;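 active means above 50% in both replicates, above 80% if mildly self-fluorescent; inactive means the rest, strongly fluorescent compounds included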;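 further: 0% = mean of negative and 100% = mean of positive controls; one replicate is shown; some compounds called inactive have numbers as strong as hits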
PV pol inh: poliovirus RdRp elongation inhibitors, primary screen, biochemical, fluorescence polarization, total intensity; poliovirus polymerase elongation; active compounds read low; % elongation, % (compound at 16.7 µg/mL); 0.66% of 150,000 active; in the data active means % elongation below about 90%; further: some results filed as inactive read as strong as hits
Target sequence (P03300 1749-2209 limits assumed): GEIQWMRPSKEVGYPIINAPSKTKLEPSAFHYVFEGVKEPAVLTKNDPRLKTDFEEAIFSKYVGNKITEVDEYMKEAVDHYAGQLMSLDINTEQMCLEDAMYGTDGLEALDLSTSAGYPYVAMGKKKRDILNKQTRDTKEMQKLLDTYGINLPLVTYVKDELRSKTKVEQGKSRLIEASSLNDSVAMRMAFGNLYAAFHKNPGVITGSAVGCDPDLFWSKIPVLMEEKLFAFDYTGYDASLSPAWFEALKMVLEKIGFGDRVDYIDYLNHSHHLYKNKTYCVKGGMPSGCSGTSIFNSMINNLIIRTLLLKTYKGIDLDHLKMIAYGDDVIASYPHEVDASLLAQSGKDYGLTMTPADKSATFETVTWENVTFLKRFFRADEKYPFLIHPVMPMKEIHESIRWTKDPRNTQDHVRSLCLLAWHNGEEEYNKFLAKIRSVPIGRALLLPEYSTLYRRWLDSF
MenB inh: M. tuberculosis MenB inhibitors, primary screen, biochemical, absorbance; MenB enzyme assay, absorbance read-out; some hits fall short of the stated cut; inhibition, %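 (about 12 µg/mL by stock and volumes)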; 0.43% of 100,000 active; AID 540299, 2011;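 active means mean of two replicates above 30%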;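 further: 0% = no compound and 100% = wells with inactive enzyme; the first replicate is given; strong numbers were not always called active; inactives centre near -10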
Target sequence (P9WNP5 whole entry, looked up): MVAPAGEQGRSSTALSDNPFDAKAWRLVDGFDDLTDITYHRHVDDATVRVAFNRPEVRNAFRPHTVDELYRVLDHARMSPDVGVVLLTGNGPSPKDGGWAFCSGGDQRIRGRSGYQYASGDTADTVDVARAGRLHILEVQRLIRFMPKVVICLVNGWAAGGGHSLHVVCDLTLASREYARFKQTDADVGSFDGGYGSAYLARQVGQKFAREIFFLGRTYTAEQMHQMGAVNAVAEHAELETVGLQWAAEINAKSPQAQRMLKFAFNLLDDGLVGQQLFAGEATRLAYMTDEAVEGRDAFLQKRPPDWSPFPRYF
PV pol inh intensity: second read-out of PV pol inh, no call of its own (marks repeat the call); % elongation; measured here: total intensity read-out; formula for this scale not given here;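 total fluorescence in place of polarization; lower means less elongation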
Numbers without * were called inactive; . = not tested or not shown; & = joins results of further samples.

(1) O=C(N/N=C1\CC(=O)c2ccccc21)c1ccc2c(c1)OCO2
(2) O=C(NCCC1=CCCCC1)C1CCN(C(=O)Cc2ccccc2)CC1
(3) CCCn1c(=O)n(C)c(=O)c2c(SCC(=O)O)nc(CC(C)C)nc21
(4) O=C(Nc1ccc(S(=O)(=O)N2CCCCC2)cc1)C1CCCCC1
(5) COc1ccc(N(C)S(=O)(=O)c2ccc3c(c2)oc(=O)n3C)cc1
(6) COC(=O)C1CCN(S(=O)(=O)c2ccc(OC)cc2)CC1
compound no.,1,2,3,4,5,6
Mtb MbtI inh,8,1,12,-5,4,-17
PV pol inh,89,103,104,101,103,100
PV pol inh intensity,122,99,96,101,101,100
MenB inh,-164,-32,-41,4,4,16

(7) COc1ccc(NC(=O)C2CCCN2S(=O)(=O)c2ccc3c(c2)C(C)(C)C(=O)N3C)cc1 (configuration not stated)
(8) O=C(NCc1ccco1)c1ccc(-n2cnc3cccnc32)cc1
(9) COc1cc(-c2ccc(=O)[nH]n2)ccc1OC(F)F
(10) CN(CCc1ccccn1)C(=O)c1cccnc1Oc1ccc(Cl)cc1
(11) CC1Cc2cc(S(=O)(=O)NCCC(=O)N3CCCCCC3)ccc2N1C(=O)C1CC1 (configuration not stated)
(12) O=C(CN(C(=O)c1ccccc1)N1C(=O)CCC1=O)c1ccccc1
compound no.,7,8,9,10,11,12
Mtb MbtI inh,-14,0,-12&-6,-4,-16,0
PV pol inh,103,105,98&98&99,104,100,100
PV pol inh intensity,103,104,104&103&102,109,104,103
MenB inh,-5,-6,-5&-5,-13,-7,-2

(13) COC(=O)c1c(SC)nc2ccccc2c1OC
(14) C=CCN1C(=S)N[C@@H]2CS(=O)(=O)C[C@@H]21
(15) N#CC1(NC(=O)COC(=O)c2ccc(-n3cccc3)cc2)CCCC1
(16) COc1ccc(/C(O)=C/C(=O)C(=O)NC2C3CC4CC(C3)CC2C4)cc1 (configuration not stated)
(17) O=S(=O)(c1ccccc1F)N1C2CCC1CC(O)(c1ccccc1F)C2 (configuration not stated)
(18) Cc1ccc(Oc2ccc(C#N)c(C#N)c2)c(-n2nc3ccccc3n2)c1
compound no.,13,14,15,16,17,18
Mtb MbtI inh,-1,-1,-14,-8,16,-27
PV pol inh,100,101,102,99,103,106
PV pol inh intensity,103,101,101,101,103,101
MenB inh,10,0,-9,.,23,-29

(19) Cc1cc(C)c2c(CC(=O)O)coc2c1
(20) O=S(=O)(NC1CC2CCC1C2)c1cccs1 (configuration not stated)
(21) CCOC(=O)c1oc2ccccc2c1NC(=O)COC(=O)CCc1nc2ccccc2c(=O)[nH]1
(22) CN(C)/C=C1/Nc2ccccc2C1=O
(23) CS(=O)(=O)n1nc(-c2ccco2)nc1N
(24) O=C(c1cc2cc(Br)ccc2oc1=O)N1CCN(c2ccccc2F)CC1
compound no.,19,20,21,22,23,24
Mtb MbtI inh,-3,.,-1,3,-7,1
PV pol inh,103,104,102,95,106,101
PV pol inh intensity,103,111,113,115,100,99
MenB inh,6,-7,2,-362,-16,7

(25) CSc1ccc(C(C(C(=O)c2cccs2)N2CCOCC2)N2CCOCC2)cc1 (configuration not stated)
(26) CC(C)n1nccc1NC(=O)CSc1nnc(Nc2ccccc2F)s1
(27) CC1=C(Cc2ccc(OC(=O)c3ccccc3)cc2)C(=O)C(C(C)C)CC1 (configuration not stated)
(28) O=C(NCCc1ccccc1)N1CCOCC1
(29) COC(=O)c1cc(S(=O)(=O)N(CCCN2CCOCC2)C2CCN(C)CC2)cn1C
(30) COc1cc(CCC(=O)Nc2c(C(=O)N3CCN(c4ccccn4)CC3)oc3ccccc23)on1
compound no.,25,26,27,28,29,30
Mtb MbtI inh,0,9,0,-2,7,-26
PV pol inh,104,103,101,101,101,99
PV pol inh intensity,108,99,102,103,96,102
MenB inh,-29,-8,-19,3,14,4

(31) CC(C)(C)c1ccc(C(=O)N2CCCC2)cc1
(32) CC1=C(C(N)=O)C(/C=C/c2ccccc2)n2ncnc2N1 (configuration not stated)
(33) Cc1cccc(Cn2nc(Cc3cccnc3)c3ccccc3c2=O)c1
(34) CC(=O)Oc1ccccc1OCc1nn(C)c2ccccc12
(35) CCN(CC)CCOc1ccc2nc(N(C)C)sc2c1
(36) O=C(Nc1cccc2nonc12)C(F)(F)C(F)(F)C(F)(F)F
compound no.,31,32,33,34,35,36
Mtb MbtI inh,.,13,-5,.,10,2
PV pol inh,102,.,105,100,100,102
PV pol inh intensity,106,.,109,102,100,101
MenB inh,10,2,-25,-8,2,-28

Some of these compounds in order of molar mass, rising:
(31) CC(C)(C)c1ccc(C(=O)N2CCCC2)cc1
(20) O=S(=O)(NC1CC2CCC1C2)c1cccs1 (configuration not stated)
(13) COC(=O)c1c(SC)nc2ccccc2c1OC
(9) COc1cc(-c2ccc(=O)[nH]n2)ccc1OC(F)F
(32) CC1=C(C(N)=O)C(/C=C/c2ccccc2)n2ncnc2N1 (configuration not stated)
(35) CCN(CC)CCOc1ccc2nc(N(C)C)sc2c1
(8) O=C(NCc1ccco1)c1ccc(-n2cnc3cccnc32)cc1
(4) O=C(Nc1ccc(S(=O)(=O)N2CCCCC2)cc1)C1CCCCC1
compound no.,31,20,13,9,32,35,8,4
Mtb MbtI inh,.,.,-1,-12&-6,13,10,0,-5
PV pol inh,102,104,100,98&98&99,.,100,105,101
PV pol inh intensity,106,111,103,104&103&102,.,100,104,101
MenB inh,10,-7,10,-5&-5,2,2,-6,4

(18) Cc1ccc(Oc2ccc(C#N)c(C#N)c2)c(-n2nc3ccccc3n2)c1
(2) O=C(NCCC1=CCCCC1)C1CCN(C(=O)Cc2ccccc2)CC1
(27) CC1=C(Cc2ccc(OC(=O)c3ccccc3)cc2)C(=O)C(C(C)C)CC1 (configuration not stated)
(10) CN(CCc1ccccn1)C(=O)c1cccnc1Oc1ccc(Cl)cc1
(26) CC(C)n1nccc1NC(=O)CSc1nnc(Nc2ccccc2F)s1
(24) O=C(c1cc2cc(Br)ccc2oc1=O)N1CCN(c2ccccc2F)CC1
(25) CSc1ccc(C(C(C(=O)c2cccs2)N2CCOCC2)N2CCOCC2)cc1 (configuration not stated)
(29) COC(=O)c1cc(S(=O)(=O)N(CCCN2CCOCC2)C2CCN(C)CC2)cn1C
compound no.,18,2,27,10,26,24,25,29
Mtb MbtI inh,-27,1,0,-4,9,1,0,7
PV pol inh,106,103,101,104,103,101,104,101
PV pol inh intensity,101,99,102,109,99,99,108,96
MenB inh,-29,-32,-19,-13,-8,7,-29,14

(7) COc1ccc(NC(=O)C2CCCN2S(=O)(=O)c2ccc3c(c2)C(C)(C)C(=O)N3C)cc1 (configuration not stated)
compound no.,7
Mtb MbtI inh,-14
PV pol inh,103
PV pol inh intensity,103
MenB inh,-5

More entries:
(37) COc1ccc(NC(=O)c2ccccc2Nc2ccccc2)cc1
(38) c1ccc(-c2nc3ccccc3o2)cc1
(39) Cc1ccc(NC(=O)C2C3C=CC4(O3)C2C(=O)N(c2ccccc2F)C4C(=O)NC2CCCC2)cc1 (configuration not stated)
(40) S=c1cc(-c2ccccc2)ss1
(41) Cc1nnc2c(Nc3ccccc3I)nc3nonc3n12
(42) O=C(Cc1ccccc1)Nc1nnc(C2CCCCC2)s1
compound no.,37,38,39,40,41,42
Mtb MbtI inh,-4,.,-5,94*,-16,.
PV pol inh,100,104,103,88*,107,107
PV pol inh intensity,101,108,104,80*,108,107
MenB inh,.,-21,-32,-9,-21,-7

(43) COc1ccccc1OCC(=O)N(C)c1ccccc1
(44) CCn1c2ccccc2c2cc(/C=C/C(=O)O)ccc21
(45) O=C(Nc1ccccc1)C1CCN(c2cnccn2)CC1
(46) O=C1CN(C(=O)Cn2nnc3ccccc3c2=O)c2ccccc2N1
(47) COc1cccc(NC(=O)NCc2ccccc2)c1
(48) O=C1c2ccccc2C(=O)N1CCSc1ncccn1
compound no.,43,44,45,46,47,48
Mtb MbtI inh,-4,108,-128,-9,4,3
PV pol inh,101,101,101,103,100,.
PV pol inh intensity,105,95,102,107,101,.
MenB inh,-9,-12,-2,-16,-32,-15

(49) O=C(Nc1ccc2[nH]ncc2c1)/C(=C/c1ccco1)NC(=O)c1ccccc1
(50) Cc1ccccc1-n1c(C)cc(/C=C2\NC(=O)NC2=O)c1C
(51) Cc1cc(O)cc(O)c1C(=O)Cc1cnn(-c2ccccc2)c1
(52) O=C(O)CC1(Cc2nc(-c3ccc(Cl)cc3)no2)CCCC1
(53) C=CCNC(=O)C1C(=O)Nc2nc3ccccc3nc21 (configuration not stated)
(54) CC1(C)CC(=O)C=C(NCC2CCNCC2)C1
compound no.,49,50,51,52,53,54
Mtb MbtI inh,12,-12,-12,-7,-1,16
PV pol inh,101,104,101,102,101,106
PV pol inh intensity,104,98,108,105,105,99
MenB inh,-35,-49,1,-1,.,-48

(55) COc1ccccc1OCC(=O)N1C(C)CCCC1C (configuration not stated)
(56) NC1=NCCN1CC(=O)O
(57) Cc1cc(-n2c(C)cc(C(=O)Cn3cc(C(F)(F)F)cc(Cl)c3=O)c2C)no1
(58) Cn1c(CC(=O)Nc2ccccc2)n[nH]c1=S
(59) Cc1nn(Cc2ccccc2)c(C)c1C(=O)OCC(=O)c1cc(C)n(C2CC2)c1C
(60) COCCNS(=O)(=O)c1ccc(C(=O)OC)n1C
compound no.,55,56,57,58,59,60
Mtb MbtI inh,-4,-18,0,16,11,-4
PV pol inh,101,100,101,100,101,102
PV pol inh intensity,105,100,100,101,105,103
MenB inh,4,-3,10,8,-27,-3

(61) OCC1CCCN(Cc2ccc(Br)o2)C1 (configuration not stated)
(62) Cn1nc(-c2cc(C(F)(F)F)cc(C(F)(F)F)c2)c2ccccc2c1=O
(63) COc1ccc(CN(Cc2cccn2C)C(=O)c2cc3cc(OC)ccc3[nH]2)cc1
(64) CC(O)CN(Cc1ccc(Cl)c(Cl)c1)CC(C)O (configuration not stated)
(65) O=c1[nH]c(NCCO)nc2ccccc12
(66) Cc1ccc(C(=O)OC2CCCN(C)C2)s1 (configuration not stated)
compound no.,61,62,63,64,65,66
Mtb MbtI inh,-10,-13,55,-17,91,4
PV pol inh,101,104,100,101,105,102
PV pol inh intensity,106,110,110,104,101,91
MenB inh,-16,-9,-2,13,-13,.

(67) CCNC(=O)CSc1ccc(Cl)cc1
(68) O[C@H]1CCCC2CCCCC21 (some centres not stated)
(69) CC(C)(C)c1ccc(Cn2c(N)nc3ccccc32)cc1
(70) CCc1ccc(N2C(=O)N(C)c3ccccc3S2(=O)=O)cc1
(71) CCOC(=O)CSc1nnc2c3ccccc3n(C)c2n1
(72) CC1=C(C#N)C(=O)N(CC(C)O)C(=O)/C1=C/c1ccc(-c2ccc(Br)cc2)o1 (configuration not stated)
compound no.,67,68,69,70,71,72
Mtb MbtI inh,-18,1,-5,-18,10,76
PV pol inh,98,104,103,100,102,107
PV pol inh intensity,103,103,102,103,102,104
MenB inh,-13,1,1,-8,12,-14

(73) C/C(=N\N)c1c(-c2ccccc2)c2cc(Br)ccc2[nH]c1=O
(74) O=C(O)C1CSC(C2CC=CCC2)N1 (configuration not stated)
(75) CN(C)S(=O)(=O)c1cccc(C(=O)OCc2cc(=O)n3ccsc3n2)c1
(76) CC(=O)Oc1ccc(/C=C2/C(=N)N3C(=NC2=O)SN=C3SC(C)C)cc1
(77) CC(C)=CCSc1nc2sc3c(c2c(=O)[nH]1)CCCC3
(78) CC1(C)CC2CC(C)(CN2C(=O)COC(=O)c2cccs2)C1 (configuration not stated)
compound no.,73,74,75,76,77,78
Mtb MbtI inh,-2,.,-1,-7,20,-14
PV pol inh,104,107,105,102,101,96
PV pol inh intensity,106,107,110,105,103,95
MenB inh,2,-34,-11,-12,-33,.

(79) O=C(Oc1ccc2c(=O)c(Oc3ccccc3Cl)coc2c1)c1ccco1
(80) Cc1ccc(N2C(=O)SC(N(CC(=O)O)c3ccccc3)C2=O)cc1 (configuration not stated)
(81) CN(C)c1cccc(C(=O)OCC(=O)c2ccc(OC(F)F)cc2)c1
(82) COc1ccccc1OCCC(=O)NC1CCCCC1C (configuration not stated)
(83) CCN(CC)c1ccc(N=C2C(=C(C#N)C#N)c3ccccc3C2=C(C#N)C#N)cc1
(84) Cc1cccc(N=C(N)NC(N)=O)c1
compound no.,79,80,81,82,83,84
Mtb MbtI inh,-2,2,3,26,.,-3
PV pol inh,103,102,101,102,107,99
PV pol inh intensity,104,103,98,98,139,100
MenB inh,-18,-10,-49,3,-22,5

(85) C=CCn1c(CCNC(=O)c2cccs2)nnc1SCC(=O)c1ccc(Br)cc1
(86) COc1ccc2c(CC(=O)Nc3ccccc3)coc2c1
(87) COC(=O)C1=C(C)N(Cc2ccc(C)cc2)C(=O)/C1=C\c1ccc(N(C)C)cc1
(88) CC(=O)N(c1nccs1)C1CCCCC1
(89) CS(=O)(=O)Nc1ccc([N+](=O)[O-])cc1OC1CCCCC1
(90) CC(C)CN(C(=O)c1ccc(Cl)cc1)c1c(N)n(CC(C)C)c(=O)[nH]c1=O
(91) Nc1c(Cl)cc(Cl)cc1C(=O)OCC(=O)NC1CCCCC1
(92) CC(=O)N(C(C)=O)n1c(C)nc2c(sc3nnc(-c4ccccc4)c(-c4ccccc4)c32)c1=O
compound no.,85,86,87,88,89,90,91,92
Mtb MbtI inh,7,-4,19,2,5,4,-9,-7
PV pol inh,103,105,76,101,104&101,105,104,106
PV pol inh intensity,102,101,127,104,99&98,106,108,100
MenB inh,-14,-4,4,.,-5,-26,.,-9

Compound activity (PubChem)
